HSD17B inh – blocks hydroxysteroid 17-beta dehydrogenase activity. Potency, µM (highest dose often 57.1 µM), without a hit: at the highest dose activity change, negative = inhibition, hits mostly inhibitors. recombinant HSD17B10, NADH fluorescence kinetic; many of its hits are not listed in these tables. 7.6% of 75,000 active; active = well fitted inhibition curve with a large enough effect; inconclusive = small, poorly fitted or top-dose-only effect; inactive = no such curve, though single readings can be large or run the other way;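 note: the protocol describes HADH2 (HSD17B10) and not the HSD17B4 of the title; nearly all actives have a fitted effect of over 70% in size; most hits overshoot -100% by far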
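20 nM HADH2, pH 9.0 Tris/Tween; cpd preinc 15 min RT; start w/ 1 mM NAD+ + 90 uM b-hydroxybutyryl-CoA; kinetic fluor ex360/em450 q30s x 4 min; delta last-first.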
* marks the source's active call; other numbers are inactive results; i = inactive; ? = inconclusive; & = joins results of further samples; [ ] = another dose, or the depositor's remark. % is set by controls: 0 for no effect and ±100 for the full control effect; potency is the fitted concentration of half-maximal effect.

Cc1cc(C)nc(N2CCC(CNC(=O)CCc3ccccc3)CC2)n1
- HSD17B inh: 31.6µM*

C[N+]1(CCOS(=O)C23CC4CC(CC(C4)C2)C3)CCOCC1 (stereo not drawn)
- HSD17B inh: 6.4%

Cc1ccc(C)c(S(=O)(=O)N2CCC(c3nc4c(nnn4Cc4ccc(F)cc4)c(=O)[nH]3)CC2)c1
- HSD17B inh: -19.6%

CCOc1ccccc1C(=O)Nc1ccccc1O
- HSD17B inh: 0.3%

O=C(CSc1nc(-c2ccccc2)cc(=O)[nH]1)Nc1ccccn1
- HSD17B inh: 3.6%

CCCCN(CC)C(=O)C1CCC(=O)N(c2ccc(OC)cc2)C1c1ccc(OC)c(OC)c1 (stereo not drawn)
- HSD17B inh: 2.3%

COc1cc(-c2nnc(SCC(=O)Nc3cc(C)on3)n2C)cc(OC)c1O
- HSD17B inh: -4.1%

Cn1cnc2cc(NS(=O)(=O)c3ccc(Br)cc3)ccc21
- HSD17B inh: 4.3%

CCc1nnc(NC(=O)CSc2nnc(C)n2CC2CCCO2)s1 (stereo not drawn)
- HSD17B inh: -5.1%

Cc1ccccc1N1CCN(Cc2cccc(C(=O)O)c2)CC1
- HSD17B inh: 3.7%

O=C(NCCO)c1ccc(Cc2nc3ccccc3[nH]2)cc1
- HSD17B inh: 4.9%

N#Cc1cccc(NC(=O)Nc2cccs2)c1
- HSD17B inh: 25.1µM*

Cc1ccc(C)c(NS(=O)(=O)c2cc(C(N)=O)ccc2C)c1
- HSD17B inh: 11.0%

COc1cc2c(cc1OC)/C(=C/C#N)NC(C)(C)C2
- HSD17B inh: -7.2%

O=C(/C=C/c1ccc(O)c(O)c1)OCCc1ccccc1
- HSD17B inh: 20µM*

Cc1cc(N2CCN(C(=O)c3ccco3)CC2)n2ncc(-c3ccccc3)c2n1
- HSD17B inh: -0.1%

Cc1ccc(NC(=O)Cn2cccc2)cc1Cl
- HSD17B inh: -17.0%

CCCCC(CC)C(=O)Nc1ccc(Cl)cn1 (stereo not drawn)
- HSD17B inh: 3.1%

O=C(Nc1ccccn1)c1cccc(S(=O)(=O)N2CCOCC2)c1
- HSD17B inh: -1.6%

CCOC(=O)c1oc2c(O)c(O)ccc2c(=O)c1-c1nncn1-c1ccccc1
- HSD17B inh: -23.4%

C[C@H](OP(=O)(O)O)[C@H](N)C(=O)O
- HSD17B inh: 9.1%[11.4 µM]

O=C(CN(C(=O)CCC(=O)Nc1nccs1)c1ccc(F)cc1)NCC1CCCO1 (stereo not drawn)
- HSD17B inh: 9.8%

COCN(C#N)c1nc(OC)nc(OC)n1
- HSD17B inh: 6.4%

CCN1CCN(c2oc(COc3ccc(-c4ccccc4)cc3)nc2C#N)CC1
- HSD17B inh: ?

CCOC(=O)C(Cc1c[nH]c2ccccc12)NC(=O)c1ccco1 (stereo not drawn)
- HSD17B inh: -7.1%

Cc1cc2c(cc1C)/C(=C\C(N)=O)NC(C)(C)C2
- HSD17B inh: 1.0%

CC1=C(CC[C@H](C)CO)O[C@@H]2C[C@@H]3[C@H]4CC[C@H]5C[C@@H](O)CC[C@]5(C)[C@@H]4CC(=O)[C@@]3(C)[C@@H]12
- HSD17B inh: 5.8%[11.4 µM]

CCN1C(=O)CC(N2CCN(c3ccc(Cl)cc3)CC2)C1=O (stereo not drawn)
- HSD17B inh: 6.3%

CC(O)c1nc2ccccc2n1C1CCCCC1 (stereo not drawn)
- HSD17B inh: 4.9%

CCOC(=O)Cc1csc(NC(=O)CSc2nnnn2-c2ccc(CC)cc2)n1
- HSD17B inh: -7.8%

CC(C)C(=O)Nc1cccc(NC(=O)CCN2C(=O)c3ccccc3S2(=O)=O)c1
- HSD17B inh: -8.2%

CCn1cc(C(=O)NC2CCCC2)c(=O)c2cc(S(=O)(=O)N3CCOCC3)ccc21
- HSD17B inh: 0.5%

CCCCOc1[nH]c2nc(-c3ccco3)n(Cc3ccco3)c(=N)c2c1C#N
- HSD17B inh: 25.1µM*

COc1ccc(CCNC2CC(=O)N(CCc3ccccc3)C2=O)cc1OC (stereo not drawn)
- HSD17B inh: -12.5%

CN(C)C(=O)c1ccc(-c2ccc3ncnc(Nc4ccc(F)cc4)c3c2)cc1
- HSD17B inh: -3.2%

O=C(Nc1ccc2c(c1)OCO2)N1CCN(c2cccc(C(F)(F)F)c2)CC1
- HSD17B inh: -12.6%

O=C(O)C(NS(=O)(=O)c1cccc2cccnc12)c1ccccc1 (stereo not drawn)
- HSD17B inh: 7.8%

CCC(Oc1ccccc1)C(=O)NCc1cccnc1 (stereo not drawn)
- HSD17B inh: 3.6%

CCOC(=O)c1ccc(NC(=O)NC2CCN(CC(=O)NCc3ccc4c(c3)OCO4)CC2)cc1
- HSD17B inh: 10.2%

CCCOc1ccc(C2C(C#N)=C(N)Oc3nc[nH]c(=O)c32)cc1OC (stereo not drawn)
- HSD17B inh: 4.7%

CCOc1ccc(S(=O)(=O)n2ccnc2)c2ccccc12
- HSD17B inh: -4.9%

Cc1cccc(NC(=O)CN(C)S(=O)(=O)c2ccc(Cl)cc2)n1
- HSD17B inh: -17.6%

CCOC(=O)c1cnc(-n2nc(C)cc2C)nc1Nc1ccc(N(C)C)cc1
- HSD17B inh: -8.4%

CCN(CC)S(=O)(=O)c1csc(C(=O)NC2CCCCC2)c1
- HSD17B inh: -10.2%

COc1cc(C)nc(NS(=O)(=O)c2ccccc2)n1
- HSD17B inh: 1.3%

COCCCNC(=O)C1CCCN(C(=O)Nc2ccc(OC)cc2)C1 (stereo not drawn)
- HSD17B inh: -0.2%

C=CCSc1nnc(Cc2c(C)[nH]c3ccccc23)o1
- HSD17B inh: 4.0%

CC(C)C(C(=O)Nc1cccnc1)N1C(=O)c2ccccc2C1=O (stereo not drawn)
- HSD17B inh: 7.0%

COC(=O)c1[nH]c2cc(OC)c(OC)cc2c1NC(=O)CN1CCN(Cc2ccccc2)CC1
- HSD17B inh: 25.1µM*

Cc1csc(=Nc2ccc(S(=O)(=O)N3CCOCC3)cc2)n1Cc1ccco1
- HSD17B inh: -19.9%

CC1CCC2C(=O)OC(CN3C(=O)c4ccccc4C3=O)CN2C1c1ccc(Br)cc1 (stereo not drawn)
- HSD17B inh: 5.8%[11.4 µM]

O=C(c1cccc(OC(F)F)c1)N1CCN(c2ncccn2)CC1
- HSD17B inh: 5.4%

CC(=O)c1cc(C#N)c(SCC(=O)OC(C)(C)C)nc1C
- HSD17B inh: 0.9%

CCn1c(=O)cc(SCC(=O)Nc2cccnc2)c2ccccc21
- HSD17B inh: -19.0%

OC1CCN(c2c3c(nc4cc(-c5cccc(F)c5)nn24)CCCC3)CC1
- HSD17B inh: i

FC(F)(F)c1cc(-c2ccccc2)nc(NCC2CCCO2)n1 (stereo not drawn)
- HSD17B inh: 31.6µM*

c1ccc2oc(C3=NCCN3)cc2c1
- HSD17B inh: 31.6µM*

COc1ccc(Oc2ncc3nc(-c4cn(C)c5ccccc45)c(=O)n(C)c3n2)cc1
- HSD17B inh: 5.8%

Cn1cc(Cl)c(C(=O)NC2CCCCCC2)n1
- HSD17B inh: 11.4%

C=CCNC(=O)C1CCN(S(=O)(=O)c2ccc(Br)cc2)CC1
- HSD17B inh: 0.2%

Cc1ccc2cc(C(c3nnnn3C3CCCC3)N3CCN(c4ccccc4)CC3)c(=O)[nH]c2c1 (stereo not drawn)
- HSD17B inh: 2.0%

COc1cc2c(cc1OC)[C@@H]1CC(=O)[C@@H](CC(C)C)CN1CC2
- HSD17B inh: ?

COc1ccc(CC(=O)Nc2c3c(nn2-c2cccc(C)c2C)CS(=O)(=O)C3)cc1
- HSD17B inh: 8.9%

CCc1ccc(C(=O)N2CCCC2)s1
- HSD17B inh: -4.9%

COc1ccc(Cl)cc1NC(=O)NC(C)c1ccncc1 (stereo not drawn)
- HSD17B inh: 10.0%

CCCc1nc(SCc2ccccn2)c2c(=O)n(C)c(=O)n(C)c2n1
- HSD17B inh: 1.4%

CCS(=O)(=O)N1CCN(C(C)CCc2ccccc2)CC1 (stereo not drawn)
- HSD17B inh: 5.9%

CCCNS(=O)(=O)c1ccc(OCC(=O)Nc2ccccc2F)cc1
- HSD17B inh: 10.4%

COc1ccc(OC)c(C(=O)c2coc3ccc(O)cc23)c1
- HSD17B inh: -3.7%

COc1ccc(CN2C(=O)[C@@H]3C(c4ccccc4Cl)=NO[C@@H]3C2=O)cc1
- HSD17B inh: -1.8%

COCC(=O)Nc1ccc(C(N)=O)cc1
- HSD17B inh: 0.5%

Clc1ccc(N2CCN(Cc3c[nH]c4ncccc34)CC2)cc1
- HSD17B inh: 7.0%&-17.4%

Cc1cc(C)n(-c2nc(C)nc(N)n2)n1
- HSD17B inh: 8.7%

CC1CN(c2nc3ccccc3nc2C(C#N)C(=O)OC2CCCCC2)CC(C)O1 (stereo not drawn)
- HSD17B inh: 2.9%

CC1=C(C)CC(C(=O)Nc2cccc(Cl)c2)C(C(=O)O)C1 (stereo not drawn)
- HSD17B inh: 3.9%

COc1ccc(NC(=O)CN2CCN(S(=O)(=O)c3ccc(Cl)cc3)CC2)cc1Cl
- HSD17B inh: 1.5%

O=C(NC1CCCCC1)N(CCN1CCCC1)Cc1cc2cc3c(cc2[nH]c1=O)OCCO3
- HSD17B inh: 25.1µM*

O=C(NCCCN1CCCC1=O)c1nnc(Cc2c(F)cccc2Cl)o1
- HSD17B inh: 7.3%

CCCCSc1nc2c(cc1C#N)CCC2
- HSD17B inh: -23.8%

Nn1c(-c2ccccn2)nnc1-c1ccccn1
- HSD17B inh: 6.0%

O=c1c2ccccc2nc(SCc2nnc(-c3ccccc3)o2)n1-c1ccc(F)cc1F
- HSD17B inh: 3.6%

CCC(C)Nc1ccc(NC(C)CC)cc1 (stereo not drawn)
- HSD17B inh: -11.2%

CCOC(=O)c1cccc(S(=O)(=O)N(CCO)Cc2cc3cc(OC)ccc3[nH]c2=O)c1
- HSD17B inh: ?

O=C1C=C[C@@H](O)[C@@H]2[C@H]3C(=O)N(c4ccc(F)cc4F)C(=O)[C@@H]3CC[C@@H]12
- HSD17B inh: 2.5%[11.4 µM]

Cc1ccc(N2C(=O)CC(NCc3ccc4c(c3)OCO4)C2=O)cc1Cl (stereo not drawn)
- HSD17B inh: 0.0%

CC(=O)Nc1cccc(NC(=O)CSc2nnc(Cc3cccn3C)n2-c2ccc(C)cc2)c1
- HSD17B inh: -10.3%

Cc1ccc(-c2nc(=S)c3c(n2Cc2ccco2)CC(C)(C)OC3)cc1
- HSD17B inh: -14.6%

Cc1cccc(C(=O)O)c1C[C@H]1NCC[C@H]2c3ccccc3N[C@@H]12
- HSD17B inh: 3.16µM*

CN1[C@H](Cc2ccccc2)C=C[C@]1(C)C(=O)NCC1CC1
- HSD17B inh: -9.6%

Cc1ccc(S(=O)(=O)NCCSc2nnnn2-c2cc(C)ccc2C)cc1
- HSD17B inh: -6.6%

c1ccc(CCc2ccccc2-c2nc(-c3cccnc3)no2)cc1
- HSD17B inh: -11.3%

CCOc1ccc(OCC)c(NC(=O)C2CCN(S(=O)(=O)c3cnc[nH]3)CC2)c1
- HSD17B inh: 8.1%

CCCCNS(=O)(=O)c1ccc(OC)c2ncccc12
- HSD17B inh: 31.6µM*

Cc1cccc2sc(NC(=O)Cn3cccc3)nc12
- HSD17B inh: -16.6%

O=C(OCC(=O)N1CCN(c2ccccc2)CC1)C1=COCCO1
- HSD17B inh: 2.2%

COc1ccc(-n2c(=O)cc(N3CCN(Cc4ccccc4)CC3)[nH]c2=O)cc1
- HSD17B inh: -6.3%

COc1ccc(N2C(=O)CCC(C(=O)N3CCCCC3)C2c2ccc(OC)c(OC)c2)cc1 (stereo not drawn)
- HSD17B inh: 13.6%

Cc1nnc(NC(=O)c2ccc(S(=O)(=O)N3CCCCCC3)cc2)o1
- HSD17B inh: 1.3%

Cc1ccc(S(=O)(=O)Nc2cc(=O)[nH]c3c2CCC3)cc1
- HSD17B inh: 3.9%[11.4 µM]

15 entries from above, ordered by SMILES length, ascending:
CCCCSc1nc2c(cc1C#N)CCC2
- HSD17B inh: -23.8%

Cc1cccc2sc(NC(=O)Cn3cccc3)nc12
- HSD17B inh: -16.6%

CCCCNS(=O)(=O)c1ccc(OC)c2ncccc12
- HSD17B inh: 31.6µM*

O=C(OCC(=O)N1CCN(c2ccccc2)CC1)C1=COCCO1
- HSD17B inh: 2.2%

Cc1ccc(S(=O)(=O)Nc2cc(=O)[nH]c3c2CCC3)cc1
- HSD17B inh: 3.9%[11.4 µM]

CN1[C@H](Cc2ccccc2)C=C[C@]1(C)C(=O)NCC1CC1
- HSD17B inh: -9.6%

Cc1nnc(NC(=O)c2ccc(S(=O)(=O)N3CCCCCC3)cc2)o1
- HSD17B inh: 1.3%

Cc1ccc(N2C(=O)CC(NCc3ccc4c(c3)OCO4)C2=O)cc1Cl (stereo not drawn)
- HSD17B inh: 0.0%

Cc1ccc(-c2nc(=S)c3c(n2Cc2ccco2)CC(C)(C)OC3)cc1
- HSD17B inh: -14.6%

COc1ccc(-n2c(=O)cc(N3CCN(Cc4ccccc4)CC3)[nH]c2=O)cc1
- HSD17B inh: -6.3%

COc1ccc(NC(=O)CN2CCN(S(=O)(=O)c3ccc(Cl)cc3)CC2)cc1Cl
- HSD17B inh: 1.5%

CCOc1ccc(OCC)c(NC(=O)C2CCN(S(=O)(=O)c3cnc[nH]3)CC2)c1
- HSD17B inh: 8.1%

O=C(NC1CCCCC1)N(CCN1CCCC1)Cc1cc2cc3c(cc2[nH]c1=O)OCCO3
- HSD17B inh: 25.1µM*

COc1ccc(N2C(=O)CCC(C(=O)N3CCCCC3)C2c2ccc(OC)c(OC)c2)cc1 (stereo not drawn)
- HSD17B inh: 13.6%

O=C1C=C[C@@H](O)[C@@H]2[C@H]3C(=O)N(c4ccc(F)cc4F)C(=O)[C@@H]3CC[C@@H]12
- HSD17B inh: 2.5%[11.4 µM]

The list is partial; the hit share may differ from the screen's.
